VDR inh – inhibitors of human vitamin D receptor; 400,000 tested, 0.93% active; VDR-SRC2-3 peptide fluorescence polarization, 2 h; P11473; Potency, µM, inactives show max response, negative = inhibition, usual class: inhibitors; AID 504847; active = well fitted inhibition curve with a large enough effect; inconclusive = small, poorly fitted or top-dose-only effect, or another doubt; inactive = no such curve, though single readings can be large or run the other way; also: series mostly up to about 120 µM
Target sequence (P11473 whole entry, looked up): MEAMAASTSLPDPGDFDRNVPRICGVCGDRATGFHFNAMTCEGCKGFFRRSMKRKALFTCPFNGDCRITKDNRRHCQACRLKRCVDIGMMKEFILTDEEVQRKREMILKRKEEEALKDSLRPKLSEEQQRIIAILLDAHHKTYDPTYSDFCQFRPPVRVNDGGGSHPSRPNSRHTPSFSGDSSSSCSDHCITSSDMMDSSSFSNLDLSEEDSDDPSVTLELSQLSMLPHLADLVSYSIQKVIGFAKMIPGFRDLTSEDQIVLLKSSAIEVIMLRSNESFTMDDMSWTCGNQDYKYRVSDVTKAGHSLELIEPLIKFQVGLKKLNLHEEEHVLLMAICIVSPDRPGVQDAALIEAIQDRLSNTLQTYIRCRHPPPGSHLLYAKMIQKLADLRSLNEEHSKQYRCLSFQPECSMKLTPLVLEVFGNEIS
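Two reagent solutions held at 4 deg C in the dark were dispensed, compounds pinned at 23 nl, and the mixture incubated 2 h at room temperature. Read-out: fluorescence polarization of VDR–SRC2-3 peptide binding.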
An asterisk follows results filed as active; ? = inconclusive; & = joins results of further samples; [ ] = remark or other dose. % is scaled to controls: 0 for no effect and ±100 for the full control effect; potency is read from the fitted curve at half-maximal effect.

cpd | SMILES | VDR inh
1 | Cc1ccccc1OCCn1cc(C(=O)C2CCCCC2)c2ccccc21 | 11%
2 | CCOc1c(Br)cc(CNc2ccc(N3CCN(C(C)=O)CC3)cc2)cc1OC | -15%
3 | Cc1ccccc1NC(=O)c1cccc(OCc2c(C)noc2C)c1 | -20%
4 | O=C(CC(CC(=O)c1ccc(Cl)cc1)c1ccccc1C(=O)O)c1ccc(Cl)cc1 | -16%
5 | COC(=O)C1=C(C)N(C)C(=S)N(C)C1c1cccc(Br)c1 (centres undefined) | 5%
6 | COc1ccc(CCNC(=O)CN2CCN(S(=O)(=O)c3ccc(Cl)cc3)CC2)cc1OC | -8%
7 | CCOc1cccc(CN2CCN(c3cccc(C(F)(F)F)c3)CC2)c1O | 10%
8 | COc1ccc(CNc2oc(Cc3cccc4ccccc34)nc2C#N)cc1 | 6%
9 | COc1ccc(NC(=O)c2csc3c2CCCCC3)c(OC)c1 | -15%
10 | CCOc1cc(N2CCOCC2)c(OCC)cc1NC(=O)CN1CCCC(C)C1 (centres undefined) | -19%

(cont.)
cpd | SMILES | VDR inh
11 | N#Cc1cc2ccccc2n2nnnc12 | -4%
12 | COc1ccc(-n2nnnc2-c2ccc(S(C)(=O)=O)cc2Cl)cc1 | -6%
13 | CN(C)S(=O)(=O)c1ccc(N2CCCC2)c(C(=O)Nc2nc3c(ccc4ccccc43)s2)c1 | -21%
14 | O=C(NCCN1CCCCC1)c1cc(COc2c(F)cccc2F)on1 | 7%
15 | C=CC[C@@H](CC(=O)OC(C)(C)C)C(=O)OC[C@H]1CCCN1C(=O)[C@@H](CC=C)CC(=O)N(CCO)Cc1ccccc1 | -15%
16 | Cc1ccc(S(=O)(=O)/N=C2/NC(=O)/C(=C/c3ccccn3)S2)cc1 | -2%
17 | Cc1nnc(SCC(=O)c2c(N)n(C3CC3)c(=O)[nH]c2=O)n1-c1ccccc1 | -8%
18 | COC(=O)c1cc(=O)n(-c2c(Cl)cc(C(F)(F)F)cc2Cl)[nH]1 | 4%
19 | Cc1ccc(C)c(N2CCN(C(=O)c3cc(S(=O)(=O)N4CCCC4)cn3C)CC2)c1 | -14%&16%
20 | CCN1CCN(S(=O)(=O)c2ccc(Cl)c(C(=O)N(C)Cc3ccc(Cl)cc3Cl)c2)CC1 | -23%

Later entries.
cpd | SMILES | VDR inh
21 | COc1cc2c(cc1NC(=O)CSc1ccccn1)oc1ccccc12 | -1%
22 | CCN(Cc1ccccc1)C(=O)C1CCN(S(=O)(=O)c2c(C)noc2/C=C/c2ccc(C)cc2)CC1 | 3%
23 | CCC(C)(C)C(=O)Nc1nnc(CCc2ccccc2)s1 | -7%
24 | CCc1cc(=O)oc2c(C)c3c(cc12)CN(CCc1ccccc1)CO3 | 4%
25 | Cc1cc(NC(=O)CCC(=O)N(Cc2ccco2)C2(C(=O)NC3CCCC3)CCCCC2C)no1 (centres undefined) | -12%
26 | COc1ccc(-c2cn3c(n2)sc2cc(C(=O)NCCCN4CCCCC4)ccc23)cc1 | 3%
27 | COc1ccc(C2C(C#N)=C(N)Oc3cc(N)ccc32)cc1 (centres undefined) | -6%
28 | COc1ccc2c(c1)Cc1sc(NC(C)=O)nc1-2 | -13%
29 | CCCNC(=O)Cn1cnc2sc(C(=O)NCCCN3CCOCC3)c(C)c2c1=O | ?
30 | COc1ccc(C(=O)NCC(=O)OCc2ccc(F)cc2Cl)cc1OC | 5%

More structures:
cpd | SMILES | VDR inh
31 | Cc1ccc(N(CCC#N)C(=O)COC(=O)c2ccccn2)cc1 | -19%
32 | O=C(N1CCCCC1)N1CCN(c2ccc(Cl)cc2)CC1 | 5%
33 | Cc1cc(C)c(NC(=O)COC(=O)CCn2c(C)csc2=O)c(C)c1 | 8%
34 | O=C(Nc1ccc(S(=O)(=O)Nc2cnc3ccccc3n2)cc1)c1ccccc1Br | -4%
35 | CCOC(=O)c1cccc(NC(=O)[C@@H](c2ccccc2)N2Cc3ccccc3C2=O)c1 | -14%
36 | O=C(C[C@H]1C/C=C\C[C@H](NC(=O)OCC2c3ccccc3-c3ccccc32)C(=O)O[C@H](c2ccccc2)CNC1=O)N[C@H](CO)Cc1ccccc1 | 3%
37 | CC(C)(CNC(=O)Cc1ccc(NS(=O)(=O)c2cccc(C(F)(F)F)c2)cc1)N1CCOCC1 | 2%
38 | COCCN(C(=O)CCC(=O)Nc1cc(C)on1)C(C(=O)NC1CCCC1)c1ccccc1F (centres undefined) | 36%[activator]
39 | O=C1/C(=C/c2ccc(N3CCCC3)cc2)NC(=S)N1C1CC1 | 3%
40 | S=C(NCCc1ccccn1)NC1CCCCC1 | 4%

Later entries
cpd | SMILES | VDR inh
41 | COc1ccccc1NC(=O)CSc1nnc(C2CCCCC2)n1-c1ccccc1 | -11%
42 | CC(C)C(C)NC(=O)COc1ccc([N+](=O)[O-])cc1Cl (centres undefined) | 10%
43 | CCC(C)(C)n1nnnc1C(c1ccc2ncccc2c1)N1CCN2CCCC2C1 (centres undefined) | -5%
44 | Cc1cc(OCc2cc(C(=O)N(C)Cc3ccccn3)no2)cc(C)c1Cl | 17%
45 | Cc1noc(C)c1C(=O)OCC(=O)NCc1ccccc1 | 2%
46 | Cc1cccc2cc(C3CC(c4ccco4)=NN3C(=O)CCC(=O)O)c(Cl)nc12 (centres undefined) | -13%
47 | COc1cc(CN(C)CCc2ccccn2)cc(OC)c1OC | 13%
48 | O=[N+]([O-])c1ccc(N2CCNCC2)c(S(=O)(=O)N2CCOCC2)c1 | -9%
49 | CC(N)C(=O)NCC(=O)NC1CSSCC(C(=O)O)NC(=O)C(CO)NC(=O)C(C(C)O)NC(=O)C(Cc2ccccc2)NC(=O)C(C(C)O)NC(=O)C(CCCCN)NC(=O)C(Cc2c[nH]c3ccccc23)NC(=O)C(Cc2ccccc2)NC(=O)C(Cc2ccccc2)NC(=O)C(CC(N)=O)NC(=O)C(CCCCN)NC1=O (centres undefined) | ?
50 | Cc1nc(C)c(C(=O)C2=C(O)C(=O)N(CCN3CCOCC3)C2c2cccnc2)s1 (centres undefined) | 16%

(listing goes on)
item	smiles	VDR inh
51	Cc1cc(C)n(-c2cc(=O)n(C)c(=O)n2C)n1	15%
52	Cc1cccc(N2N=C(C(=O)N3Cc4ccccc4CC3C(N)=O)CCC2=O)c1 (centres undefined)	-4%
53	C[C@H](CO)N1C[C@H](C)[C@@H](CN(C)Cc2ccc(Cl)c(Cl)c2)Oc2c(NS(=O)(=O)c3cn(C)cn3)cccc2C1=O	9%
54	COc1cc(CNn2c(C)n[nH]c2=S)cc(Br)c1OCc1ccc(F)cc1	-4%
55	CN(C)CCCNc1c2c(nc3cc(-c4cccc(F)c4)nn13)CCC2	-1%
56	COc1ccc(N/C(=C2\CCCC2=O)C2CCCCC2)cc1	?
57	CC[C@@H](C)[C@@H](C(=O)N1CCNCC1)n1cc(CCC(=O)O)nn1	-9%
58	COc1ccc(NC(=O)COC(=O)C(NC(=O)c2ccc(C)cc2)C(C)C)cn1 (centres undefined)	-17%
59	COc1ccc(OC)c(-c2oc3ccccc3c(=O)c2O)c1	-9%
60	CNc1nc(-c2cccc(NS(C)(=O)=O)c2)nc2ccccc12	45µM*
61	CN(C)CCCN(C(=O)COc1ccccc1)c1nc2cc3c(cc2s1)OCO3	-4%
62	CC(=O)Nc1ccc(NS(=O)(=O)c2c(Cl)cccc2Cl)cc1	-26%
63	CNc1ncnc2c1ncn2[C@H]1C[C@H](O)[C@@H](CO)O1	-6%
64	CCCCCCCCN=C(N)c1ccc(C(=O)OCC2CCCCC2)cc1	0%
65	Cc1c(Cc2ccccc2)c(=O)oc2c(O)c(O)ccc12	6%
66	CCOc1ccc(Cl)cc1S(=O)(=O)N1CCCC1	-2%
67	O=C(/C=C/c1ccc(Br)cc1)c1ccc(NC2=NCCCS2)cc1	22µM*
68	O=C(Cn1nc(C(=O)O)c2ccccc2c1=O)Nc1ccc2c(c1)OCO2	10%
69	COc1ccccc1Oc1cn[nH]c1-c1ccc(O)cc1O	-9%
70	COC(=O)C1=NN(c2ccc(OC)cc2)C2C(=O)N(c3ccccc3OC)C(=O)C12 (centres undefined)	-13%
71	CCN(CC)C(=O)COCc1cc(-c2ccc3c(c2)OCO3)on1	-20%
72	Cc1ccc(Cl)cc1-n1c(=O)cc(N2CC(C)OC(C)C2)[nH]c1=O (centres undefined)	-1%
73	CCCCOc1ccc(C(C)NC(=O)c2cccc(Nc3nc4ccccc4n4nnnc34)c2)cc1 (centres undefined)	10%
74	CCOC(=O)Cn1ncc2c3ccccc3n(CC(=O)OCC)c2c1=O	6%
75	COC(=O)NNC(=O)C1CCC(C)CC1 (centres undefined)	6%&-2%
76	COc1cc(OC)cc(C(=O)NNC(=S)Nc2ccccc2OC)c1	-5%
77	CCOC(=O)c1c(N)c2cc([N+](=O)[O-])cnc2n1C	20%
78	COc1ccc(N(C(=O)c2ccco2)S(=O)(=O)c2ccc(F)cc2)cc1	-1%
79	CN1C(=O)N(C)C2(C)CC1(C)N(C)C(=O)N2C	-9%
80	COc1ccccc1CN1CCN(C2CCN(C(=O)Nc3ccccc3)CC2)C(=O)C1=O	5%

Additional results:
item	smiles	VDR inh
81	O=C1C(=O)N(CCCN2CCOCC2)C(c2ccc(F)cc2)/C1=C(\O)c1ccc2c(c1)OCCO2 (centres undefined)	-6%
82	Cc1ccccc1CNC(=O)Nc1cccs1	5%
83	CN(C(=S)NC1=CCS(=O)(=O)C1)C1CCCCC1	-3%
84	Cc1ccc(/C(COc2ccccc2O)=N\O)cc1	16%
85	COC(=O)COc1ccc(/C=C2\SC(=O)N(CC(=O)Nc3ccccc3F)C2=O)cc1	10%
86	O=C(CCN1C(=O)S/C(=C\C=C\c2ccccc2)C1=O)Nc1ccc(O)cc1	6%
87	Cc1ccccc1Nc1c(-c2cccnc2)nc2ccc(Cl)cn12	-19%
88	COc1cccc(CN2CCNC(=O)C2CC(=O)NCCCC2CCCC2)c1OC (centres undefined)	-11%
89	CC/C(=N\NC(=S)Nc1cc(C)ccc1C)c1ccc(OC(F)F)cc1	3%
90	CCSc1nnc(NC(=O)C2Cc3ccccc3CN2C(=O)c2ccco2)s1 (centres undefined)	-13%
91	Cc1nn(C(C)C(=O)Nc2ccc(C(C)C)cc2)c(=O)c2c1sc1ccccc12 (centres undefined)	12%
92	Cc1ccn2cc(CNC(=O)c3ccc(Br)o3)nc2c1	1%
93	CC(CN1CCCC1)OC(=O)Cc1ccc(Cl)cc1 (centres undefined)	-5%
94	Cc1cc(C)n(CC(=O)NNC(=O)C2CC(=O)N(Cc3ccccc3Cl)C2)n1 (centres undefined)	-10%
95	Cc1ccc(S(=O)(=O)N2CCN(C(=O)COC(=O)CNC(=O)c3ccccc3F)CC2)c(C)c1	-15%
96	Cc1c(C(=O)O)oc2c1-c1nn(Cc3ccccc3Cl)cc1CC2	-13%
97	CCc1ccc2[nH]c3nc(SCC(=O)NNC(=O)c4ccc(C(C)(C)C)cc4)nnc3c2c1	11%
98	CC1CCN(C(=O)Cn2c3ccc(F)cc3c3nc4n(c(=O)c32)CCCS4)CC1	0%
99	O=C(Nc1ccc(-c2nc3cccnc3s2)cc1)c1ccco1	-9%
100	COCCNC(=O)c1ccccc1NC(=O)c1cccc([N+](=O)[O-])c1C	6%
101	CC1(C)Cc2c(C#N)c(N)sc(=S)c2CO1	-9%
102	Cc1ccc(C)c(-n2nnnc2SCC(=O)c2ccc3c(c2)NC(=O)CO3)c1	13%
103	COc1ccnc(Oc2ccc3ccccc3c2)c1C#N	-4%
104	CCn1c(SCC(=O)Nc2ncc(C(F)(F)F)cc2Cl)nnc1-c1cccc(C)c1	-2%
105	NC1(N)OC(CN2C(=O)c3ccccc3C2=O)CS1 (centres undefined)	-15%
106	Cc1nn(C(C)(C)C)c(NC(=O)c2ccc(Cl)cc2Cl)c1Br	20%
107	CC(SC1CCCC1)C(=O)Nc1ccnn1C(C)C (centres undefined)	-3%
108	CCCNC(=O)Cn1c(=O)n(CC(=O)N2CCCCC2)c(=O)c2sccc21	-12%
109	O=C(NC1CCN(Cc2ccccc2)CC1)c1cc(-c2ccccn2)nc2ccccc12	-11%
110	Cc1ccc(Cl)c(OCC(=O)Nc2sc(C)c(C)c2C#N)c1	-11%

Next part:
item	smiles	VDR inh
111	O=C(Nn1cnnc1)c1ccc(Cl)cc1	-28%
112	COc1ccc(/C=C2\SC(N3CCCCC3)=NC2=O)cc1OC	13%
113	COc1ccc(N(CC(=O)NN=C2CCCC2)S(=O)(=O)c2ccccc2)cc1Cl	1%
114	CN(Cc1cnccn1)C(=O)C1CCC(=O)N(CCc2ccccc2)C1 (centres undefined)	7%
115	Cc1nc2ccccc2c(=O)n1/N=C/c1ccc(O)c(O)c1O	-5%
116	O=C(Nc1ccccn1)c1ccc(NC(=O)c2ccco2)cc1	-16%
117	CCCC(C)C(=O)Nc1nc(C)c(-c2csc(Nc3ccc(Cl)cc3)n2)s1 (centres undefined)	-22%
118	O=C(CN1CCN(Cc2cccc(Cl)c2)C1=O)NCC1CCCO1 (centres undefined)	10%
119	COc1ccccc1N1CCN(C(=O)c2ccccc2N(C)S(=O)(=O)c2ccc(C)cc2)CC1	-5%
120	O=C1CN(C(=O)COC(=O)c2ccc[n+]([O-])c2)c2ccccc2N1	-5%
121	COC(=O)c1cc(NCc2ccc3c(c2)OCO3)ccc1N1CCOCC1	2%
122	COc1ccc(NC(=O)CSc2ncccn2)cc1S(=O)(=O)N1CCCCC1	12%
123	CCc1cccc(CC)c1NC(=O)C1CC(=O)N(c2ccc3c(c2)OCCO3)C1 (centres undefined)	0%
124	CSCCC(NS(=O)(=O)c1ccccc1F)C(=O)NCc1cccs1 (centres undefined)	-1%
125	CCOC(=O)c1ccc(N2C(=O)c3n[nH]c(-c4cccs4)c3C2c2ccc(OCC)cc2)cc1 (centres undefined)	4%

The list is partial. The share of hits here may be higher or lower than overall.
